2A Renilla = Primary qHTS Assay for Foot and Mouth Disease Virus Antivirals against NCGC Sytravon and CBC Compound Libraries: Renilla Luciferase Signal; HEK cells with a luciferase reporter of 2A StopGo recoding; Potency, µM (series often up to 57.5 µM), without a hit: at the top dose signal change, negative = less light; actives 0.32% (n = 120,000); active means well fitted falling curve with a large enough effect; inconclusive means small, poorly fitted or top-dose-only effect; inactive means no such curve, though single readings can be large or run the other way; note: nearly all actives have a fitted effect of over 55% in size; overnight with compound
StopGo FLuc = Primary qHTS Assay for Foot and Mouth Disease Virus Antivirals against NCGC Sytravon and CBC Compound Libraries: Firefly Luciferase Signal; HEK cells with a luciferase reporter of 2A StopGo recoding; Potency, µM (highest dose often 57.5 µM), for the others: top-dose signal change, negative = less light; actives 0.23% (n = 120,000); AID 1745856, 2022; active = well fitted falling curve with a large enough effect; inconclusive = small, poorly fitted or top-dose-only effect; inactive = no such curve, though single readings can be large or run the other way; note: nearly all actives have a fitted effect of over 60% in size; overnight with compound
* = called active by the depositor; ? = inconclusive; & = joins results of further samples; [ ] = another dose, or the depositor's remark. % is set by controls: 0 for no effect and ±100 for the full control effect; potency is the fitted concentration of half-maximal effect.

#1 CCn1cnnc1-c1cccc(NS(=O)(=O)c2cccc(F)c2)c1
#2 CC(C)(C)c1nc(CC(=O)NCCCN2CCCC2)cs1
#3 O=C(c1ccc2ncsc2c1)N(Cc1ccc(F)cc1)C1CC1
#4 CCCCOC(=O)CSc1nnc(-c2ccc(C)cc2)o1
#5 O=C(c1ccc2ccccc2c1O)N1CCN(S(=O)(=O)c2ccc(Cl)cc2)CC1

assay / compound	1	2	3	4	5
2A Renilla	68%[activator]	-7%	1%[1.06 µM]	-6%	-13%
StopGo FLuc	4%	-13%	-9%	?	-12%

#6 C=C(C)COc1ccc2c(=O)c(Oc3ccccc3Br)c(C)oc2c1
#7 CCOC(=O)c1c(C)oc2ncnc(NCCCN3CCN(c4cc(C)ccc4C)CC3)c12
#8 Cc1ccc(NC(=O)C2=COCCO2)cc1Cl
#9 COc1ccc(CNC(=O)CCC(=O)N2CC3CCCN3c3ccccc32)cc1 (stereo not given)
#10 O=c1cc(N2CCN(c3ccc(F)cc3)CC2)[nH]c(=O)n1-c1ccc(Br)cc1

assay / compound	6	7	8	9	10
2A Renilla	-18%	-5%	-14%	0%	8%
StopGo FLuc	-19%	-2%	28%	-8%	-26%

#11 Cc1ccc(CCNC(=O)c2ccc3c(Cl)c4c(nc3c2)CCCC4)cc1
#12 COc1ccc(OC)c(S(=O)(=O)n2nc(C)c(S(=O)(=O)N3CCCC3)c2C)c1
#13 CCc1c(C)sc(NC(=O)C2CC2c2ccccc2)c1C#N (stereo not given)
#14 O=C(CCc1nc(C2=CCN(Cc3cccc(Cl)c3)CC2)no1)Nc1ccccc1F
#15 O=C(CSc1ccc2nc(-c3ccccc3)cn2n1)Nc1ccccc1

assay / compound	11	12	13	14	15
2A Renilla	9%&-2%	4%	15%	9%	-1%
StopGo FLuc	4%&-11%	16%	33%[activator]	8%	308%[activator]

Given with values under each structure: part of the list above.
Fields: 2A Renilla	StopGo FLuc
(2) CC(C)(C)c1nc(CC(=O)NCCCN2CCCC2)cs1
 : -7%	-13%
(3) O=C(c1ccc2ncsc2c1)N(Cc1ccc(F)cc1)C1CC1
 : 1%[1.06 µM]	-9%
(4) CCCCOC(=O)CSc1nnc(-c2ccc(C)cc2)o1
 : -6%	?
(5) O=C(c1ccc2ccccc2c1O)N1CCN(S(=O)(=O)c2ccc(Cl)cc2)CC1
 : -13%	-12%
(6) C=C(C)COc1ccc2c(=O)c(Oc3ccccc3Br)c(C)oc2c1
 : -18%	-19%

Later entries:
#16 N#Cc1ccc(CSc2nnc3c(Cl)cc(C(F)(F)F)cn23)cc1
#17 CCc1ccc(CNC(=O)Cc2ccc(NC(=O)N3CCSc4ncccc43)cc2)cc1
#18 CCc1ccc(C2CCNCC2)cc1
#19 Cn1c(CN2CCN(c3ccccc3NC(=O)Nc3ccccc3)CC2)nc2ccccc21
#20 COc1ccc2c(c1)c(C(=O)CN(C)C)c(C)n2C

assay / compound	16	17	18	19	20
2A Renilla	-3%	-18%	-9%	-6%	-11%
StopGo FLuc	-11%	16%	-18%	2%	-2%

#21 O=S(=O)(c1ccccc1)c1nc(-c2ccco2)oc1N1CCN(c2ccccc2)CC1
#22 COc1cccc(Nc2nc3ccccc3nc2NS(=O)(=O)c2ccc(Cl)cc2)c1
#23 O=C(NCCc1nc2ccccc2n1Cc1c(F)cccc1Cl)c1ccco1
#24 CC(=O)c1cn(CC(=O)NCCCCCC(=O)O)c2ccccc12
#25 COc1ccc(CN(C(=O)c2nn(Cc3ccccc3)c(=O)c3ccccc23)C2CC2)cc1

assay / compound	21	22	23	24	25
2A Renilla	29%	32%[activator]	-15%	-9%	19%
StopGo FLuc	0%	176%[activator]	-29%	-3%	?

#26 CCC(=O)Nc1ccc2oc(-c3cccc(OC)c3)nc2c1
#27 COc1ccc(-c2cnc(C)o2)cc1S(=O)(=O)Nc1ccc(C)cc1
#28 Cn1c(N2CCC(Cc3ccccc3)CC2)nc2c1c(=O)n(Cc1ccc(Cl)cc1)c(=O)n2C
#29 COc1ccc(OC)c2c1cc(C(=O)NCC(=O)Nc1nc(C)cs1)n2C
#30 COc1cccc(OCc2ccc(C(=O)O)o2)c1

assay / compound	26	27	28	29	30
2A Renilla	8%	303%[activator]	?	-9%	7%
StopGo FLuc	0%	0%	?	8%	0%

Excerpt: compounds 1–3
#1 CCn1cnnc1-c1cccc(NS(=O)(=O)c2cccc(F)c2)c1
#2 CC(C)(C)c1nc(CC(=O)NCCCN2CCCC2)cs1
#3 O=C(c1ccc2ncsc2c1)N(Cc1ccc(F)cc1)C1CC1

assay / compound	1	2	3
2A Renilla	68%[activator]	-7%	1%[1.06 µM]
StopGo FLuc	4%	-13%	-9%

Later entries:
#31 O=C(NCCc1ccc(Cl)cc1)c1ccc2c(c1)N(Cc1cccc(Cl)c1)C(=O)c1ccccc1S2(=O)=O
#32 COc1ccccc1NS(=O)(=O)c1cc(NC(=O)c2n[nH]c3ccccc23)ccc1Cl
#33 Cc1nn(C)c(C)c1CNCc1ccnc(N2CCOCC2)c1
#34 O=C(NC1(c2ccc(Cl)cc2)CCC1)c1cc(Cl)c[nH]1
#35 CCOc1ccc(NC(=O)CC2C(=O)N(c3cccc(C)c3)C(=O)N2Cc2cccnc2)cc1 (stereo not given)

assay / compound	31	32	33	34	35
2A Renilla	7%	-41%	-12%	-18%	-28%
StopGo FLuc	0%	?	4%	-13%	-30%

#36 Cc1oc(-c2ccno2)cc1S(=O)(=O)Nc1cccc2ccccc12
#37 O=C(CN(Cc1ccco1)C1CC1)NC1CCCC1
#38 Cc1ccc(C(=O)Nc2ccc3nc(SCc4ccc(Br)cc4)sc3c2)cc1
#39 O=C(c1ccc(Cl)c(Cl)c1)N1CCN(Cc2cc(=O)n3ccsc3n2)CC1
#40 COc1cc(/C=C/c2nc(C#N)c(N3CCCCCC3)o2)cc(OC)c1OC

assay / compound	36	37	38	39	40
2A Renilla	270%[activator]	0%	9%	-7%	15%
StopGo FLuc	18%	0%	0%	2%	16%

#41 Cc1ccc(-c2nn(-c3ccccc3)c(-c3ccc(C)cc3)c2C)cc1
#42 Cc1ccc(-c2noc(CCC(=O)N(C)c3ccccc3F)n2)cc1
#43 CC(C)CC(NC(=O)C1CCCCC1)C(=O)O (stereo not given)
#44 Cc1c[nH]c2ccccc12
#45 Cc1ccc(-c2cc(C(=O)Oc3ccc(C#N)cc3)no2)cc1

assay / compound	41	42	43	44	45
2A Renilla	10%	-5%	8%	-12%	-5%
StopGo FLuc	15%	6%	0%	-15%	24%

Quoted from the listing.
Value of no. 33 in 2A Renilla: -12%
Value of no. 12 in 2A Renilla: 4%
Value of no. 43 in 2A Renilla: 8%
Value of no. 24 in StopGo FLuc: -3%
Value of no. 25 in 2A Renilla: 19%
Value of no. 32 in 2A Renilla: -41%

Next section
#46 COc1ccc(C2(c3ccc(F)cc3)CCCCC2)cc1
#47 CC12CC3CC(C)(C1)CC(C(=O)NC1CCCC1)(C3)C2
#48 O=C(Cn1c(=O)nc(-c2ccccc2)c2ccccc21)NCc1ccc(F)cc1
#49 CCS(=O)(=O)Nc1ccc(N2CCN(c3cccc(C(F)(F)F)c3)CC2)c(C(=O)O)c1
#50 CCN(C(=O)c1cccs1)C1CC1

assay / compound	46	47	48	49	50
2A Renilla	8%	20%	-15%	5%	9%
StopGo FLuc	-1%	-7%	-1%	10%	12%

#51 O=C1OC(C(=O)Nc2cnc3ccccc3c2)Cc2ccccc21 (stereo not given)
#52 COc1ccc(OC)c(NC(=O)Cc2c(C(=O)O)[nH]c3ccc(Cl)cc23)c1
#53 CCOC(=O)C1CCCN(C(=O)c2ccc3c(c2)sc2nc(-c4cccc(OC)c4)cn23)C1 (stereo not given)
#54 CC(C)(C)CC(=O)NCC(O)c1ccccc1C(F)(F)F (stereo not given)
#55 Cc1ccc(C)c(N2CCN(S(=O)(=O)c3ccc(F)c(C(=O)Nc4ccc(Cl)cc4Cl)c3)CC2)c1

assay / compound	51	52	53	54	55
2A Renilla	-4%	-10%	-15%	-11%	0%
StopGo FLuc	46%[activator]	-16%	38%[activator]	-6%	-16%

#56 Cc1ccc(NC(=O)C(C#N)C(=O)CCC(C)C)c(C)c1 (stereo not given)
#57 COc1ccc(NC(=O)C(=O)c2cc(C)n(-c3ccc(C)cc3)c2C)cc1Cl
#58 COC(=O)c1ccc(NC(=O)c2cccc3c2C(=O)N(C2CCCCC2)C3)cc1
#59 CCCOc1ccc(CNC(=O)Cn2ncn3c(cc4sc(CC)cc43)c2=O)cc1
#60 COc1cccc(COC(=O)c2nn(Cc3ccccc3)c(=O)c3ccccc23)c1

assay / compound	56	57	58	59	60
2A Renilla	80%[activator]	11%	-4%	-7%	6%
StopGo FLuc	134%[activator]	-24%	-12%	-1%	-4%

#61 COC(=O)c1sccc1S(=O)(=O)N(CC(=O)Nc1cccc(C)c1C)c1ccc(Cl)cc1
#62 Nc1nc(N2CCOCC2)nc2c1C(C(=O)Nc1ccc(Br)cc1)CC(=O)N2 (stereo not given)
#63 Cc1ccc(S(=O)(=O)NCc2c(C)nn(Cc3ccccc3)c2C)cc1C
#64 COc1ccc2oc(=O)c(C(=O)N3CCc4ccccc43)cc2c1
#65 O=C(CCNC(=O)N1CCN(C(=O)c2cc3ccccc3[nH]2)CC1)N1CCCC1

assay / compound	61	62	63	64	65
2A Renilla	58%[activator]	-9%	82%[activator]	5%	1%
StopGo FLuc	-23%	13%	-13%	5%	12%

#66 Cc1ccc(NC(=O)CN(c2ccccc2F)S(=O)(=O)c2ccccc2)c(C)c1
#67 COC(=O)c1scc(-c2ccc(C)cc2)c1S(=O)(=O)Nc1cc(C)ccc1OC
#68 O=C1NC2(CCN(S(=O)(=O)c3ccc(F)c(F)c3)CC2)N=C1c1cccs1
#69 Cc1oc2c(cc(NS(=O)(=O)c3ccc(Cl)cc3)c3ccccc32)c1C(=O)OCc1ccccc1
#70 CC(C1=CCCCC1)c1cnn(C)c1 (stereo not given)

assay / compound	66	67	68	69	70
2A Renilla	63%[activator]	155%[activator]	-9%	7%	15%
StopGo FLuc	-6%	0%	-11%	0%	13%

#71 Cc1ccc2[nH]c(CSc3nnc(NC(=O)COc4ccc(F)cc4)s3)cc(=O)c2c1
#72 CCOC(=O)c1ccc(NC(=O)C2CC(=O)Nc3cc(F)ccc32)cc1 (stereo not given)
#73 COc1ccc(NC(=O)c2noc3c2CSc2ccccc2-3)cc1Cl
#74 COc1ccc(OCC(O)CNS(=O)(=O)c2ccc(Br)cc2)cc1 (stereo not given)
#75 COc1ccccc1N1CCN(c2ncnc3c2nnn3C)CC1

assay / compound	71	72	73	74	75
2A Renilla	-8%	-20%	-9%	68%[activator]	7%
StopGo FLuc	-2%	-14%	-2%	-32%	44%[activator]

#76 CCS(=O)(=O)c1ncc(Cl)c(C(=O)NCc2ccccc2)n1
#77 Cc1cccc(-c2cc(Nc3ccc(C)c(C)c3)nc(C)n2)c1
#78 COC(=O)c1ccc2c(=O)n(CCCCCC(=O)NCCc3ccc(Cl)cc3)c(=O)[nH]c2c1
#79 CC(=O)NC(NC(C)=O)C(=O)c1ccccc1
#80 Cc1ccc(S(=O)(=O)NCC(C)O)cc1C (stereo not given)

assay / compound	76	77	78	79	80
2A Renilla	?	2%	-10%	2%	127%[activator]
StopGo FLuc	?	227%[activator]	-12%	8%	3%

#81 S=C(NCCc1ccc(Cl)cc1)Nc1ccc(Nc2ccccc2)cc1
#82 COc1cc(/C=C(/C#N)C(=O)Nc2ccccc2C(F)(F)F)cc(Br)c1OC
#83 Cc1nn(CCC(=O)Nc2ccccc2Br)c(=O)c2nn(-c3ccccc3)c(C)c12
#84 NC(=O)CC1CCN(C(=O)c2cc(=O)c3ccccc3o2)CC1
#85 CC(=O)N1CCc2c(sc3c2c(=O)n(-c2ccc(F)cc2)c(=O)n3Cc2ccc(C#N)cc2)C1

assay / compound	81	82	83	84	85
2A Renilla	?	-5%	-14%	-8%	-7%
StopGo FLuc	?	0%	-20%	-2%	-24%

#86 CC1CCN(C(C)C(=O)Nc2ccc(C#N)cc2)CC1 (stereo not given)
#87 CCc1nnc(NC(=O)C2(c3ccccc3F)CCCC2)s1
#88 O=C(O)c1c(-c2ccccc2)oc2ccc(OCc3ccc(Cl)c(Cl)c3)cc12
#89 CCOc1ccc(-c2nc(C#N)c(N3CCN(C(=O)c4ccco4)CC3)o2)cc1
#90 CCN(Cc1ccccc1)C(=O)/C=C/c1ccc(-c2ccccc2)s1

assay / compound	86	87	88	89	90
2A Renilla	-7%[1.06 µM]	9%	5%	5%	46%[activator]
StopGo FLuc	0%	3%	-18%	9%	50%[activator]

#91 O=C(COc1ccccc1-c1noc(-c2cccc(Cl)c2)n1)N1CCCCCC1
#92 COc1ccc(N2CC(NC(=O)C3CCCC3)CC2=O)cc1OC (stereo not given)
#93 COC(=O)[C@H](C(C)C)N1Cc2nnn(CC3CCCCC3)c2-c2ccccc2S1(=O)=O
#94 C/C(=N/O)c1cc2cc(Cl)ccc2oc1=O

assay / compound	91	92	93	94
2A Renilla	54%[activator]	-5%	141%[activator]	-4%
StopGo FLuc	0%	-16%	-8%	40%

Assay outcomes (PubChem BioAssay)
